RanGTP-Impb inh = disruptors of Ran-importin-beta complex formation – biochemical, FRET, CFP-Ran, YFP-importin-beta, homogeneous, primary screen | cell-free CFP-Ran/YFP-importin-beta FRET ratio | inhibition, % (no concentration beside the values) | 300,000 tested, 1.1% active | AID 2216;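 active means most replicates above 15%; inconclusive means exactly half above 15%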;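 further: 0% = DMSO wells and 100% = Ran loaded with GDP instead of GTP; wells of about 40 µL received 100 nL stock; the first replicate is given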
Beta cell apopt = blocks beta cell apoptosis; INS-1E cytokine-induced death, ATP luminescence, 48 h; percent of positive-control rescue, neutral wells zero; protection from apoptosis, % (concentration not given with the values); 300,000 tested, 0.8% active;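 active means all replicates at 75% or more, or half of them and the mean; inconclusive means half reach 75% but not the mean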;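 further: 0% = cytokine-treated negative control wells and 100% = positive control rescue; higher means more ATP so stronger rescue from cytokine killing; wells of about 40 µL received 100 nL stock; the first replicate is given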
AF4-AF9 inh = MLL-AF4/AF9 protein interaction inhibition. P42568. AlphaScreen, biotin-AF4 peptide binding to FLAG-AF9. inhibition, % at 10 µM. 350,000 tested, 0.47% active. AID 651704;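 active means every replicate reaching a set inhibition limit, whatever the replicate mean, cut at about 25% in these data; inconclusive means mean inhibition reaches that limit but some replicates miss it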;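 further: 0% = plate neutral control median and 100% = total signal loss; the record names both 10 and 1 µM as test concentration; the first replicate is given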
Target sequence (P42568 whole entry, looked up): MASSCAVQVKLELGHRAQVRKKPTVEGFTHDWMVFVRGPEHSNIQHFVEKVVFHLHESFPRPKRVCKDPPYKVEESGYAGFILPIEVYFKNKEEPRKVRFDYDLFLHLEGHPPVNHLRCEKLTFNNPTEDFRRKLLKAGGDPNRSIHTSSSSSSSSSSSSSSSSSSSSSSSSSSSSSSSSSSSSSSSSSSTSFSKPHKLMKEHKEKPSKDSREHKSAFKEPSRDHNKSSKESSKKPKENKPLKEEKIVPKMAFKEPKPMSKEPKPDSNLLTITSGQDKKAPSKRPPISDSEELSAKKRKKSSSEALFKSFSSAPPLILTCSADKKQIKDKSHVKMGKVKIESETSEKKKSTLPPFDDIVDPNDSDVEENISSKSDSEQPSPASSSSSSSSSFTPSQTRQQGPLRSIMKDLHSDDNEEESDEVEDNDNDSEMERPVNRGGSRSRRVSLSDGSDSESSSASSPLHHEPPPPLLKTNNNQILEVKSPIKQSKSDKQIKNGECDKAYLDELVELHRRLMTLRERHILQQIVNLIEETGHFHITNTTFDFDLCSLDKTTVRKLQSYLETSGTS
Calb FLC = C. albicans growth modulation with fluconazole. C. albicans CaCi-2 (fluconazole-resistant clinical isolate) + fluconazole, Alamar Blue growth, 48 h. 300,000 tested, 0.57% active. AID 1979. growth inhibition, % (test concentration not listed);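 active means most replicates above 75%; inconclusive means exactly half above 75%; inactive means most below 75%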;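 further: all wells also contain fluconazole at 8 µg/ml as a sub-toxic cotreatment; 0% = median of DMSO wells and 100% = median of geldanamycin control wells; wells of about 8 µL received 7.5 nL stock; the first replicate is given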
rRNA inh HTS = inhibits bacterial ribosomal RNA function over humanized ribosomes; E. coli WT GFP vs humanized-ribosome RFP mutants, fluorescence, 24 h; active compounds read low; DMSO median 0, no signal -100; GFP signal change (wild-type ribosome), % (concentration not given with the values); 350,000 tested, 1.6% active;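 active means significant combined selectivity score with lowered wild-type GFP, culture density cut under 30%, mutant RFP and density less affected; inactive means any of these conditions unmet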; further: one replicate is shown; some compounds called inactive have numbers as strong as hits
A1 inh = inhibitors of the anti-apoptotic protein A1, read as caspase activation; 330,000 tested, 0.066% active; caspase activation, % (no concentration beside the values); MEF A1-2A-BIM cells, Caspase-Glo 3/7 luminescence, 3 h; percent of clofoctol response, vehicle zero;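 active means over half of replicate activation scores above 10%, or exactly half above 10 with the replicate mean above 10; inconclusive means replicate mean below 10 yet half the replicates above 10; inactive means over half of replicates below 10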;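 further: wells of about 30 µL received 50 nL stock; many hits fall short of the cut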
Vif TR-FRET = HIV-1 Vif–A3G interaction blockers – biochemical, TR-FRET, GST-Vif 1-94, biotin-A3G peptide, dose response retest, primary screen (AID 1117319); TR-FRET GST-Vif / biotin-A3G peptide binding; higher % means a stronger effect; test concentration not given here; strong numbers were not always called active; inhibition, %, or IC50 in µM where a hit was titrated; 260,000 tested, 0.57% active;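 active means above the screen mean plus three standard deviations and confirmed in dose response; inconclusive means results disagree or hit not tested in dose response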;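 further: Vif residues 1-94 fused to GST binding biotinylated APOBEC3G peptide 110-148; 0% = full assay without inhibitor and 100% = GST in place of GST-Vif; retest series ran down from 100 µM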
T cruzi inh = blocks replication of Trypanosoma cruzi | AID 1885 | T. cruzi beta-gal in NIH3T3, luminescence, 90 h | inhibition, % (no concentration beside the values) | 300,000 tested, 1.4% active;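 active means mean inhibition across valid replicates above about 55%, limit read from the data; inconclusive means mean below that limit but half or more replicates reach it; inactive means mean below it, under half of replicates reach it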;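 further: signal also drops with host cell toxicity which is not excluded here; 0% = plate median of DMSO wells and 100% = zero luminescence signal; higher percent means less beta-gal luminescence so fewer parasites; stock transfer was 50 nL into about 50 µL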
rRNA inh HTS OD600 = second read-out of rRNA inh HTS, no call of its own (marks repeat the call); OD600 change, %; measured here: OD600 growth;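 optical density of the mix in the first replicate; 0 = DMSO median and -100 = no signal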
rRNA inh HTS RFP = also measured in rRNA inh HTS; calls as there; RFP signal change, %; measured here: RFP humanized mutant strains;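 first replicate; 0 = DMSO median and -100 = no signal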
* = called active by the depositor; ? = inconclusive; . = not tested or not shown; & = joins results of further samples. Not all compounds are listed; count on the stated rates, not on these rows.

SMILES	RanGTP-Impb inh	Beta cell apopt	AF4-AF9 inh	Calb FLC	rRNA inh HTS	rRNA inh HTS OD600	rRNA inh HTS RFP	A1 inh	Vif TR-FRET	T cruzi inh
O=C1Nc2ccc(Br)cc2C1Cc1ccccc1F (stereo unspecified)	-0.2	2	0.9	-2	-4	14	4.6	1.7	.	6
c1ccc(C2c3[nH]c4ccccc4c3CCN2Cc2cccn2-c2ccccn2)nc1 (stereo unspecified)	-1.9	17	?	11	0	-6	9.9	-0.1	.	39
O=C(N/N=C/c1cc([N+](=O)[O-])ccc1O)C(O)(c1ccccc1)c1ccccc1	2.8	.	1.7	98*	-17	-2	-0.1	0.5	6%	4
N#CC1CCCc2c1[nH]c1ccc([N+](=O)[O-])cc21 (stereo unspecified)	1.5	1	0.3	5	-27	-47	-7.4	0.5	-2%	2
CC1CC[C@@]2(OC1)O[C@H]1CC3[C@@H]4C[C@@H](O)[C@@]5(O)C[C@@H](O)[C@H](O)C[C@]5(C)[C@H]4CC[C@]3(C)[C@H]1[C@@H]2C (stereo partly specified)	?	3	-3.4	-2	15	22	1.0	0.8	.	-8
CC(C)c1[nH]nc2c1C(c1ccco1)C(C#N)=C(N)O2 (stereo unspecified)	6.9	0	-2.4	18	17	13	-3.8	0.0	.	-30
Cc1cccc(C(=O)Nc2ccc(N3CCN(c4ccc(C(F)(F)F)cn4)CC3)nc2)c1	1.0	-13	-1.0	-2	9	1	-0.9	0.8	.	-7
O=C(c1ccc(Cn2c(=S)[nH]c3ccc(N4CCOCC4)cc3c2=O)cc1)N1CCN(c2ccc(F)cc2)CC1	-0.8	-8	0.8	20	3	11	2.4	-1.3	1%	85*
COc1cccc(Cn2cc(N)cn2)c1	1.6	-11	4.1	32	8	5	3.4	-0.6	6%	-2
O=C(CSc1ncnc2c1cnn2-c1cccc(Cl)c1)NCC1CCCO1 (stereo unspecified)	-0.4	-1	-9.1	1	13	8	1.5	-1.1	-2%	-6
CCCCn1c(N)c(N(CC)C(=O)c2ccc3c(c2)S(=O)(=O)c2ccccc2C3=O)c(=O)[nH]c1=O	-6.5	2	.	6	.	.	.	1.4	10%	-7
OCC1(Cc2ccccc2)CCCN(Cc2c[nH]c3ccccc23)C1 (stereo unspecified)	-1.0	7	5.6	-30	-1	-8	-0.8	0.9	.	49
c1ccc(-c2ccccc2OCc2nnc3n2CCC3)cc1	2.4	-6	-1.2	-2	-23	-26	-5.4	-1.2	8%	-1
O=C(Nc1ccc2nc(-c3cccs3)[nH]c2c1)c1cccs1	3.7	32	.	-16	.	.	.	1.9	?	-2
CC1=[N+]([O-])C(C)(C)CC(C)(C)c2ccccc21	3.1	2	.	5	.	.	.	-0.9	2%	3
CCCCN(C(=O)c1cc(CC)c(C)s1)c1c(N)n(CCC)c(=O)[nH]c1=O	7.0	.	-15	-8	8	15	-0.7	-0.9	0%	2
O=C(O)C(Cc1cc2ccccc2[nH]1)N1C(=O)C2CC=C(Cl)CC2C1=O (stereo unspecified)	-0.5	-6	.	1	.	.	.	0.0	-3%&-1%	-13
CC(Oc1ccc(Cl)cc1)C(=O)NCC1CCCO1 (stereo unspecified)	?	5	1.0	6	11	0	7.3	-0.6	26%	5
CC(C)CCNC(=O)c1onc(CSc2ccccc2)c1C(=O)NCCC(C)C	2.9	-3	-0.7	4	11	0	-0.1	-0.1	.	41
CCOc1ccccc1CNC(=O)CCc1cn(C)c2ccccc12	?	-7	-2.0	1	-4	-4	0.8	0.5	.	-11
CCn1cc([N+](=O)[O-])c(C(=O)N2N=C(c3ccc4ccccc4c3)CC2c2ccccc2O)n1 (stereo unspecified)	2.3	3	.	14	.	.	.	-0.8	0%	41
CCOC(=O)c1cnc(-n2nc(C)cc2C)nc1N(C)C	-1.2	-1	.	6	.	.	.	-1.8	3%	-17
CN(C)C(CNC(=O)c1cc(S(=O)(=O)N(C)c2ccc(F)cc2)ccc1Cl)c1ccco1 (stereo unspecified)	.	-5	3.7	-1	-1	-6	2.0	0.6	-3%	-1
O=C(CSC1=NC(=O)C(Cc2ccccc2)C(=O)N1)Nc1ncc(Br)cc1Br (stereo unspecified)	5.1	-7	-20	24	5	6	1.5	-1.3	-12%	-3
Cc1c(NC(=O)/C(=C/c2cccs2)c2cccs2)c(=O)n(-c2ccccc2)n1C	3.1	-17	.	-5	.	.	.	-0.1	32%	-3
Cc1noc(C)c1S(=O)(=O)NCCc1ccc(S(N)(=O)=O)cc1	?	-2	.	-2	.	.	.	0.1	-1%	7
COc1ccc(NC(=O)CN(C)S(=O)(=O)c2ccc3c(c2)NC(=O)CS3)cc1	-2.3	0	-4.6	29	-3	1	0.8	-1.3	?	1
CCSc1nnc2c(n1)OC1(CCCC1)Nc1ccccc1-2	0.6	-3	0.9	8	-7	-2	-6.9	0.7	3%	2
CC(C)NC(=O)c1ccc(COCC(F)(F)F)cc1	-3.3	.	.	-4	.	.	.	-0.4	0%	-14
COc1cc(C(=O)NC23CC4CC(CC(C4)C2)C3)cc(OC)c1OC	-7.4	12	-14	-1	4	6	-1.6	-0.2	.	-2
CCN(C(=O)c1cnc(N2CCN(c3ncccn3)CC2)c2ccccc12)c1cccc(Cl)c1	-0.3	8	.	-25	.	.	.	0.4	2%	1
O=C(O)CC(Cc1ccccc1)C(=O)Nc1ccc([N+](=O)[O-])cc1 (stereo unspecified)	-1.6	-13	0.6	?	-14	7	1.5	-0.2	.	1
O=C1CC(Sc2ncccn2)C(=O)N1c1ccccc1C(F)(F)F (stereo unspecified)	0.8	0	.	-1	.	.	.	-1.7	5%	12
COc1ccccc1N1CCN(C(c2cc3ccc(C)cc3[nH]c2=O)c2nnnn2C2CCCC2)CC1 (stereo unspecified)	6.5	-1	.	4	.	.	.	0.0	18%	15
NC(Cc1ccc(O)c([N+](=O)[O-])c1)C(=O)O (stereo unspecified)	2.6	1	.	2	.	.	.	-0.3	?	-11
Cc1ccc(S(=O)(=O)N2CCN(C(=O)c3ccco3)CC2)cc1C	-3.7	1	-17	1	8	-2	-0.7	0.9	-1%	12

Random excerpt: 6 compounds from above
SMILES	RanGTP-Impb inh	Beta cell apopt	AF4-AF9 inh	Calb FLC	rRNA inh HTS	rRNA inh HTS OD600	rRNA inh HTS RFP	A1 inh	Vif TR-FRET	T cruzi inh
Cc1noc(C)c1S(=O)(=O)NCCc1ccc(S(N)(=O)=O)cc1	?	-2	.	-2	.	.	.	0.1	-1%	7
O=C(O)CC(Cc1ccccc1)C(=O)Nc1ccc([N+](=O)[O-])cc1 (stereo unspecified)	-1.6	-13	0.6	?	-14	7	1.5	-0.2	.	1
COc1ccccc1N1CCN(C(c2cc3ccc(C)cc3[nH]c2=O)c2nnnn2C2CCCC2)CC1 (stereo unspecified)	6.5	-1	.	4	.	.	.	0.0	18%	15
CCN(C(=O)c1cnc(N2CCN(c3ncccn3)CC2)c2ccccc12)c1cccc(Cl)c1	-0.3	8	.	-25	.	.	.	0.4	2%	1
NC(Cc1ccc(O)c([N+](=O)[O-])c1)C(=O)O (stereo unspecified)	2.6	1	.	2	.	.	.	-0.3	?	-11
Cc1c(NC(=O)/C(=C/c2cccs2)c2cccs2)c(=O)n(-c2ccccc2)n1C	3.1	-17	.	-5	.	.	.	-0.1	32%	-3

(further entries)
SMILES	RanGTP-Impb inh	Beta cell apopt	AF4-AF9 inh	Calb FLC	rRNA inh HTS	rRNA inh HTS OD600	rRNA inh HTS RFP	A1 inh	Vif TR-FRET	T cruzi inh
O=S(=O)(N/N=C/c1ccccc1OCc1ccc(Cl)cc1)c1ccccc1	6.6	3	.	-13	.	.	.	-2.2	.	4
O=[N+]([O-])c1cc(S(=O)(=O)Nc2ccc(Cl)cc2)ccc1N/N=C/c1ccncc1	-1.2	0	-8.4	1	1	12	-2.4	0.4	-4%	2
CCc1ccccc1NC(=O)CCC(=O)OCC(=O)c1ccc(-c2ccccc2)cc1	2.7	4	.	-4	.	.	.	-0.3	.	-17
Cc1ccc(-c2nnc(-c3ccc(Br)cc3)o2)o1	5.9	5	.	-2	.	.	.	-2.3	?	-9
N#Cc1ccc(C2=CC(=O)C[C@H](c3ccc(F)cc3)C2)cc1	.	-1	-1.2	.	-33	-44	-14	-0.4	.	.
CC(C)[C@H](NC(=O)N1CC(=O)Nc2ccccc21)C(=O)Nc1nccs1	2.7	-1	-0.4	1	4	5	-0.5	1.0	.	1
CN1CCN(c2ccc(NC(=O)c3ccc(C#N)cc3F)cc2Cl)CC1	-4.0	-6	2.5	7	-1	-8	-2.1	-0.5	11%	12
CCCCOC(=O)CCn1[nH]c(=O)c2ccccc2c1=O	-3.5	-1	.	-8	.	.	.	-0.5	-10%	-2
CCCC(=O)c1cc2c(cc1NC(=O)CC)OCCO2	-0.6	1	-1.8	1	7	1	-1.1	0.2	5%	7
COc1ccc(C(C)NCCC(c2ccc(OC(C)C)cc2)c2ccccc2OC)cc1 (stereo unspecified)	-4.0	82*	13	1	-55	-78	-26	1.6	-3%	?
O=S(=O)(c1ccc(F)cc1)N1CCN(CCOc2ccccc2)CC1	.	-1	1.0	.	-4	-12	-0.1	0.1	1%	.
CCCCS(=O)CC(COc1ccc(Cl)cc1)OC(=O)c1ccccc1 (stereo unspecified)	2.1	-2	.	-32	-44	-77	-8.0	1.2	0%	-14
